Screening data as filed in PubChem BioAssay.
Ecoli rRNA inh = selective bacterial rRNA inhibition in E. coli; E. coli WT GFP vs humanized-ribosome RFP mutants, fluorescence, 24 h; hits give low values; DMSO median 0, no signal -100; GFP signal change (wild-type ribosome), % (test concentration not listed); 350,000 compounds, 1.6% hits; AID 720706;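 active = significant combined selectivity score with lowered wild-type GFP, culture density cut under 30%, mutant RFP and density less affected; inactive = any of these conditions unmet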; also: one replicate is shown; some compounds called inactive have numbers as strong as hits
Beta apoptosis = blocks beta cell apoptosis; INS-1E cytokine-induced death, ATP luminescence, 48 h; percent of positive-control rescue, neutral wells zero; protection from apoptosis, % (no concentration beside the values); AID 435005; 300,000 compounds, 0.8% hits;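 active = all replicates at 75% or more, or half of them and the mean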;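 also: 0% = cytokine-treated negative control wells and 100% = positive control rescue; higher means more ATP so stronger rescue from cytokine killing; wells of about 40 µL received 100 nL stock; the first replicate is given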
MLL AF4-AF9 inh = inhibitors of human MLL-AF4/AF9 interaction; inhibition, % at 10 µM; AID 651704; P42568; AlphaScreen, biotin-AF4 peptide binding to FLAG-AF9; 350,000 compounds, 0.47% hits;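 active = every replicate reaching a set inhibition limit, whatever the replicate mean, cut at about 25% in these data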;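 also: 0% = plate neutral control median and 100% = total signal loss; the record names both 10 and 1 µM as test concentration; the first replicate is given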
FGF22 binding = binders of recombinant human FGF22 by thermal shift; calls only at 9.99 µM; AID 651658; SYPRO orange fluorescence; percent of sucrose octasulfate shift, DMSO zero; 340,000 compounds, 1.5% hits;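 active = melting point raised past a set limit in the mean and every replicate; three in four hits are not shown here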
Target sequence (Q9HCT0 whole entry, looked up): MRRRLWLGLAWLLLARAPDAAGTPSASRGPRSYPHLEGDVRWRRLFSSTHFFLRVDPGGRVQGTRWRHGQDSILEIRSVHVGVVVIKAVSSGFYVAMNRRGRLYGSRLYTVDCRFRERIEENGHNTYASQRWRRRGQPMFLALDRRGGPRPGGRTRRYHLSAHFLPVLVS
A1 inh = inhibitors of the anti-apoptotic protein A1, read as caspase activation; AID 2462; caspase activation, % (no concentration beside the values); 330,000 compounds, 0.066% hits; MEF A1-2A-BIM cells, Caspase-Glo 3/7 luminescence, 3 h; percent of clofoctol response, vehicle zero;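 active = over half of replicate activation scores above 10%, or exactly half above 10 with the replicate mean above 10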;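 also: wells of about 30 µL received 50 nL stock; many hits fall short of the cut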
T cruzi inh = blocks replication of Trypanosoma cruzi; T. cruzi beta-gal in NIH3T3, luminescence, 90 h; inhibition, % (test concentration not listed); 300,000 compounds, 1.4% hits;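 active = mean inhibition across valid replicates above about 55%, limit read from the data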;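 also: signal also drops with host cell toxicity which is not excluded here; 0% = plate median of DMSO wells and 100% = zero luminescence signal; higher percent means less beta-gal luminescence so fewer parasites; stock transfer was 50 nL into about 50 µL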
UCH37 inh = inhibitors of human deubiquitinating enzyme UCH37; 330,000 compounds, 0.33% hits; purified proteasome/UCH37, Ub-AMC cleavage fluorescence; AID 588478; Q9Y5K5; inhibition, % (no concentration beside the values);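 active = mean of two replicates above 20%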;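 also: 0% = compound-free wells with enzyme and 100% = wells lacking proteasome; stock transfer was 100 nL into about 20 µL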
Target sequence (Q9Y5K5 whole entry, looked up): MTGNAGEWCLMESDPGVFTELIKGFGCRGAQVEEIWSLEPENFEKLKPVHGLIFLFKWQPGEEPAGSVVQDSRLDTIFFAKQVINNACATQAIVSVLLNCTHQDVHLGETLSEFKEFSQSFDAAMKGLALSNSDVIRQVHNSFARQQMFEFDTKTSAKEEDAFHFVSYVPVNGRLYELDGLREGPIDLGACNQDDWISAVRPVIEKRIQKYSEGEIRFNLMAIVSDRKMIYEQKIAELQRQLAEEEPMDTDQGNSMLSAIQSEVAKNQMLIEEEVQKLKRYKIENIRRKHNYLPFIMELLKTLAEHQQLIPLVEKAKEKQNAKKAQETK
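Test system – human UCH37 enzyme supplied as purified proteasome complex · Incubation – 30 min preincubation with enzyme, 25 min cleavage at room temperature · Detection – AMC fluorescence from Ub-AMC cleavage, excitation 355 nm, emission 460 nm · Benchmarks – no-proteasome wells (full inhibition) and compound-free wells (no inhibition)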
E coli growth = inhibitors of Escherichia coli growth; OD600, 23 h; hits give low values; AID 1053175; 330,000 compounds, 0.21% hits; OD600 absorbance (concentration not given with the values);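 active = OD600 absorbance below the run mean of sample wells minus 3.6 SD, in any replicate, cut at about 0.56 in these data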;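 also: stock transfer was 300 nL into about 60 µL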
Ecoli rRNA inh OD600 = further read-out of Ecoli rRNA inh, marked with its call; OD600 change, %; measured here: OD600 growth;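 optical density of the mix in the first replicate; 0 = DMSO median and -100 = no signal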
Ecoli rRNA inh RFP = second read-out of Ecoli rRNA inh, no call of its own (marks repeat the call); RFP signal change, %; measured here: RFP humanized mutant strains;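 first replicate; 0 = DMSO median and -100 = no signal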
An asterisk follows results filed as active; i = inactive; . = no result given.

Under each structure – Ecoli rRNA inh, Ecoli rRNA inh OD600, Ecoli rRNA inh RFP, Beta apoptosis, MLL AF4-AF9 inh, FGF22 binding, A1 inh, T cruzi inh, UCH37 inh, E coli growth
[1] O=C(NC1CCNCC1)C1CC1
  17, 13, 1.6, 0, -2.2, i, 0.0, -14, -0.5, 0.67
[2] Cc1ccccc1NC(=O)NCc1ccc2c(c1)OCO2
  ., ., ., -9, ., ., -0.7, -4, 1.7, 0.7
[3] NC(=O)[C@@H]1CCCNc2c(I)cc([N+](=O)[O-])cc2C(=O)N[C@@H](CO)C(=O)NCC(=O)N1
  12, 14, 3.9, -13, 0.9, i, -0.7, ., 6.5, .
[4] O=C(COC(=O)/C=C/c1ccc(F)cc1)Nc1ccc(Cl)cn1
  0, -2, 1.1, -1, -8.3, i, 2.2, -14, 1.8, 0.67
[5] COc1ccc(CCN(C)C(=O)COc2cccc(-n3cnnn3)c2)cc1OC
  2, 8, 3.5, 3, -0.7, i, -0.4, ., 0.7, 0.66
[6] Cc1ccc(S(=O)(=O)NNC2=NCCCCC2)cc1
  12, 3, -1.2, ., -0.5, i, -0.1, 0, 3.5, 0.66
[7] CN(C)S(=O)(=O)c1ccc(C(=O)OCC(=O)N2CC3(C)CC2CC(C)(C)C3)cc1 (centres undefined)
  -1, -24, -1.6, -1, 2.7, i, 0.7, ., -0.1, 0.7
[8] Cc1nc(CN2CCN(C(=O)c3ccc(Br)cc3)CC2)cs1
  ., ., ., -2, ., ., -0.3, -1, -0.9, 0.69
[9] O=S(=O)(NCc1cn2ccsc2n1)c1ccc(Oc2ccccc2)cc1
  ., ., ., 47, ., ., 0.3, -32, -2.0, 0.76
[10] Cc1ccc2[nH]c3c(c2c1)CCCC3=O
  ., ., ., -7, ., ., -0.3, -4, -56, 0.72
[11] CCc1ccc(NC(=O)c2cccc(C(=O)Nc3ccc(CC)cc3)n2)cc1
  2, -9, -3.1, 2, -5.0, i, 0.4, 24, -1.7, 0.73
[12] C/[N+]([O-])=C\c1ccc([N+](=O)[O-])o1
  ., ., ., -1, ., ., 1.4, 67*, 12, 0.067*
[13] Cc1c(C(=O)Nc2c(C)n(C)n(-c3ccccc3)c2=O)oc2ccccc12
  ., ., ., -5, ., ., -0.5, -6, 3.2, 0.7
[14] C[C@H](NC(=O)C1CC(=O)N(c2ccc3c(c2)OCO3)C1)C(=O)NC1CCCC1 (some centres undefined)
  4, 3, 0.5, -5, -8.0, i, -0.3, -12, 0.4, 0.68
[15] CSc1ccc(/C=C(/NC(=O)c2ccccc2)C(=O)N2CCN(C)CC2)cc1
  8, 13, 1.9, -1, 0.9, ., 0.6, -12, 5.0, 0.66
[16] CCSc1nc2c(c(=O)[nH]1)C(c1cccs1)C(C(=O)OC)=C(C)N2 (centres undefined)
  2, 6, -0.4, ., -0.7, i, 0.8, -12, -7.9, 0.74
[17] COc1cccc(OC)c1C(=O)Nc1cc2c(cc1N1CCOCC1)n(C)c(=O)n2C
  -5, 6, 1.2, -4, -4.2, i, 1.5, 0, 6.0, 0.68
[18] O=S(=O)(Nc1cccnc1)c1ccc(F)cc1
  0, 7, -1.4, -2, -4.9, i, -0.2, 1, 0.7, 0.72
[19] O=C(COc1ccc2c(-c3ccccc3)cc(=O)oc2c1)N[C@H](Cc1c[nH]c2ccccc12)C(=O)O
  -22, -21, -1.8, 0, -0.6, i, -0.5, -3, 5.6, 0.66
[20] COc1ccc(C2C(C(=O)c3ccco3)=C(O)C(=O)N2CC2CCCO2)cc1OC (centres undefined)
  9, 8, 1.4, 1, -1.8, i, 0.1, -33, 8.0, 0.64
[21] O=C(OCC(=O)N1CCN(c2ccccc2)CC1)c1ccc(Cl)cc1[N+](=O)[O-]
  4, -12, -2.8, -3, 7.1, i, 0.3, 0, -0.8, 0.62
[22] N#Cc1c(C(F)(F)F)cc(-c2ccc(Cl)cc2)nc1SCC(=O)O
  -3, 3, 5.0, -2, 0.8, i, -0.2, 3, 7.9, 0.71
[23] Cc1cccc(-c2noc(CN(C)S(=O)(=O)c3cc(Cl)ccc3Cl)n2)c1
  -10, -6, -0.1, 2, -88, i, 0.1, 32, 3.2, 0.7
[24] O=S(=O)(Nc1ccccn1)c1ccc(-n2cccn2)cc1
  9, 10, 0.4, -4, -2.7, i, 0.4, 4, -1.5, 0.69
[25] CN(CC(=O)Nc1ccc(Cl)c(C(F)(F)F)c1)C(=O)C1CC(=O)N(CCc2ccccc2)C1 (centres undefined)
  -45, -73, -6.0, ., 5.4, i, ., ., 3.8, 0.66
[26] O=C(Nc1ccc(N2CCOCC2)cc1)C1CCCN(S(=O)(=O)c2cccc(C(F)(F)F)c2)C1 (centres undefined)
  ., ., ., 2, ., ., -1.3, -2, 2.4, 0.71
[27] CCOc1ccccc1N1CCN(Cc2cnc(-c3ccccc3)[nH]2)CC1
  10, -3, 2.9, 1, 10, i, 1.1, ., 5.9, 0.69
[28] O=C(NCC1CCCO1)c1ccc(N2CCCCC2)nc1 (centres undefined)
  5, 0, -6.4, -2, 2.1, ., 1.4, -20, 1.3, 0.68
[29] O=C(c1ccccc1)c1nccc2ccccc12
  5, -2, -5.1, -5, 2.2, i, 0.3, -14, 7.2, 0.71
[30] O=C(CC12CC3CC(CC(C3)C1)C2)NC(=S)N1CCCCC1
  12, 4, 1.5, 6, -23, i, -0.3, 3, -0.5, 0.66
[31] CC(=O)Nc1ccc(N2N=C(C)C(N=Nc3ccccc3)C2=O)cc1 (centres undefined)
  0, 14, -1.5, -18, 2.0, i, 0.2, -5, 11, 0.71
[32] O=C(/C=C/c1ccc([N+](=O)[O-])s1)N1CCN(c2ccccc2)CC1
  -2, 5, 1.8, -14, -4.1, i, 0.2, 59*, 4.1, 0.73
[33] CCN1CCN(CCCNC(=O)CCCn2nc(C)c3sc4ccccc4c3c2=O)CC1
  1, 1, 0.8, 5, 1.0, i, -0.5, 6, 2.9, 0.7
[34] CCC(CC)C(=O)c1c[nH]c(C(=O)N2CCN(c3ccccc3F)CC2)c1
  5, 7, -0.4, -3, 0.8, i, -0.4, 19, 6.6, 0.72
[35] CCOc1cccc2sc(=NC(=O)c3ccc(S(=O)(=O)N4CCOCC4)cc3)n(C)c12
  ., ., ., 8, ., ., -1.3, 47, -463, 0.71
[36] C/C=C1\C(OC2OC(CO)C(O)C(O)C2O)OC=C(C(=O)OC)C1CC(=O)OCC1C(C)C(OC(=O)CC2C(C(=O)OC)=COC(OC3OC(CO)C(O)C(O)C3O)/C2=C\C)CC1C(CO)CO (centres undefined)
  10, 10, 8.2, -3, 0.0, i, 0.4, -10, -1.9, 0.7
[37] Cc1cccc(-n2ncc3c(NCc4ccccn4)ncnc32)c1
  ., ., ., -1, ., ., 0.1, -8, 3.6, 0.74
[38] O=C(c1cccs1)N1CCCC(c2nc3c(nnn3Cc3ccccc3Cl)c(=O)[nH]2)C1 (centres undefined)
  -9, -19, 1.6, -4, 0.1, i, 0.1, 9, 3.4, 0.67
[39] Cc1ccc(C(=O)c2c(NC(=O)c3cccnc3)sc3c2CCCC3)cc1
  ., ., ., -8, ., ., 0.9, 18, 4.9, 0.69
[40] Cc1ccccc1C(=O)N1N=C(c2cccc(NS(C)(=O)=O)c2)CC1c1cccs1 (centres undefined)
  -1, -11, 10, -3, 0.4, i, 0.9, 15, 1.4, 0.65
[41] CC1CCCN(C(=O)C2CCN(S(=O)(=O)c3ccc4c(c3)CC(C)N4C(=O)C3CC3)CC2)C1 (centres undefined)
  -18, -15, 6.5, -2, -4.2, i, 0.3, 8, 4.4, 0.69
[42] COc1nc(Nc2ccc(C(C)C)cc2)nc(OC)n1
  ., ., ., 6, ., ., -1.2, 13, 4.3, 0.69
[43] CCCCCN(C(=O)CCC(=O)OCC(=O)N1CCC(C)CC1)c1c(N)n(CCCC)c(=O)[nH]c1=O
  4, 5, 0.3, ., -0.8, i, 1.5, -7, 2.6, 0.64
[44] COc1ccc(CNc2ncc(-c3ccc(F)cc3)n2C)cc1OC
  14, 7, 2.6, -3, 8.4, i, 0.6, 9, 0.4, 0.67
[45] CCn1c(COc2cccc(OC)c2)nnc1SCC(=O)Nc1ccccc1C(=O)OC
  -28, -25, -4.0, 9, ., ., 0.8, -7, 0.5, 0.71
[46] COc1ccc(NC(=S)Nc2ccc(C)c(S(=O)(=O)N3CCCCC3)c2)cc1
  ., ., ., 6, ., ., -0.5, -5, 0.2, 0.63
[47] COCCCNC(=O)/C(C#N)=C/c1c(N2CCN(c3ccc(OC)cc3)CC2)nc2c(C)cccn2c1=O
  -6, -1, 8.3, -3, 19, i, 2.3, 5, 8.4, 0.67
[48] CCc1nnc(NC(=O)c2cc(S(=O)(=O)N3CCOCC3)ccc2N2CCCCC2)s1
  -2, -1, -16, ., -2.0, i, ., 9, 1.2, 0.73
[49] CCN(CC)c1ccc(NC(=O)COC(=O)COc2ccccc2[N+](=O)[O-])cc1
  1, 13, 4.0, 1, 2.8, i, 0.6, -9, 2.6, 0.68
[50] CC1CCN(C(=O)c2[nH]cnc2C(=O)N2CCN(C(=O)OC(C)(C)C)CC2)CC1
  12, 22, 5.3, 5, -66, i, 0.0, ., -0.6, 0.73
[51] Cc1sc(N)nc1-c1cccs1
  ., ., ., -5, ., ., -0.2, -11, 1.6, 0.67
[52] COc1ccc(N=Nc2c(C)[nH]c3ccccc23)cc1
  -51, -76, -14, -5, 26*, i, 0.1, 13, 4.3, 0.64
[53] Cc1cc(C)c2nc(N3CCN(C(=O)c4ccco4)CC3)sc2c1
  -29, -44, -4.5, 3, 6.0, i, 0.2, 9, 3.4, 0.68

Random excerpt: 4 records from the list
Under each structure – Ecoli rRNA inh, Ecoli rRNA inh OD600, Ecoli rRNA inh RFP, Beta apoptosis, MLL AF4-AF9 inh, FGF22 binding, A1 inh, T cruzi inh, UCH37 inh, E coli growth
[44] COc1ccc(CNc2ncc(-c3ccc(F)cc3)n2C)cc1OC
  14, 7, 2.6, -3, 8.4, i, 0.6, 9, 0.4, 0.67
[52] COc1ccc(N=Nc2c(C)[nH]c3ccccc23)cc1
  -51, -76, -14, -5, 26*, i, 0.1, 13, 4.3, 0.64
[45] CCn1c(COc2cccc(OC)c2)nnc1SCC(=O)Nc1ccccc1C(=O)OC
  -28, -25, -4.0, 9, ., ., 0.8, -7, 0.5, 0.71
[43] CCCCCN(C(=O)CCC(=O)OCC(=O)N1CCC(C)CC1)c1c(N)n(CCCC)c(=O)[nH]c1=O
  4, 5, 0.3, ., -0.8, i, 1.5, -7, 2.6, 0.64

Some of the compounds tested (hit frequency here may not be typical).
